High-throughput results as filed in PubChem BioAssay.
VACV mCherry inh – inhibitors of vaccinia virus infection (mCherry reporter signal); Vaccinia virus mCherry reporter infection, fluorescence; about a quarter of the inactives have no number; Potency, µM (top dose mostly 36.5 µM), for the others: at the top dose activity change, negative = inhibition, hits mostly inhibitors; 0.63% of 310,000 active; AID 720579; active = well fitted inhibition curve with a large enough effect; inconclusive = small, poorly fitted or top-dose-only effect; inactive = no such curve, though single readings can be large or run the other way; tested in A549 cells; note: nearly all actives have a fitted effect of over 35% in size; inactives centre near -10
Vaccinia Venus – vaccinia inhibition (Venus reporter). Vaccinia virus Venus reporter expression, fluorescence. Potency, µM (doses to about 36.5 µM), inactives show at the top dose activity change, negative = inhibition, usual class: inhibitors. 0.46% of 330,000 active. AID 720580; active means well fitted inhibition curve with a large enough effect; inconclusive means small, poorly fitted or top-dose-only effect; inactive means no such curve, though single readings can be large or run the other way; tested in A549 cells; note: nearly all actives have a fitted effect of over 30% in size; inactives centre near -10
Starred values were filed as active, the others as inactive; i = inactive; ? = inconclusive; . = not tested or not shown; & = joins results of further samples; [ ] = another dose, or the depositor's remark. % is set by controls: 0 for no effect and ±100 for the full control effect; potency is the fitted concentration of half-maximal effect.

SMILES | VACV mCherry inh | Vaccinia Venus
COc1cc(C(=O)N/N=C/c2ccc(OC(=O)c3cccc(C)c3)cc2)ccc1O | -14% | -11%
C#Cc1ccc([C@H]2C=C(C(=O)OCC=C)O[C@@H](OCC)[C@@H]2CCCO)cc1 | i | -1%
CCN(CC)C(=O)C1=C(C)N(CCCN2CCCC2=O)C(=O)C(CC(=O)NCc2cccc3ccccc23)C1 (centres undefined) | -14% | -21%
CN(C)c1ccc(/C=N/NC(=O)c2ccc(NC(=O)c3ccccc3)cc2)cc1 | -12% | -2%
CCCCNc1c(-c2ccc(SC(C)CC)cc2)nc2ccccn12 (centres undefined) | -31%&-16% | ?
Fc1ccc(NC(=S)NCCN2CCOCC2)c(F)c1F | -6% | -3%
COc1ccc2c(c1OC)C(=O)OC2c1ccc(O)cc1 (centres undefined) | -7% | -16%
Cc1cccc(NC(=O)CSc2ccc(-c3ccc4c(c3)OCO4)nn2)c1C | -5% | 5%
CCOc1ccc(CCNC(=O)c2ccc(CS(=O)Cc3cccc(Cl)c3)o2)cc1 (centres undefined) | -20%&-13% | -13%&-12%
O=C(Oc1c(Cl)cc(Cl)c2cccnc12)c1cccs1 | ? | ?
CCC(=O)N=c1sc2cc([N+](=O)[O-])ccc2n1CCOC | -20% | -9%
Cc1ccc(-n2c3c(cc(C(=O)NC4CCSC4=O)c2=O)C(=O)CCC3)cc1 (centres undefined) | -1% | -7%
COc1ccc(NS(=O)(=O)c2cccc(C(=O)NNC(=O)CNC(=O)c3ccccc3F)c2)cc1 | i | -7%
CC1CCCN(C(=O)c2nn(C)c3c2CSc2ccccc2-3)C1 (centres undefined) | -9% | -9%
Cn1c(N)c(C(=O)COC(=O)C2CC(=O)N(Cc3ccccc3)C2)c(=O)n(C)c1=O (centres undefined) | -3% | -14%
O=C(Nc1ccc2c(c1)OCO2)C1Cc2c(-c3ccc(Cl)cc3)ccnc2O1 (centres undefined) | ? | ?
Cc1cccc(-n2nnnc2SCC(=O)NCC2CCCO2)c1 (centres undefined) | -7%[7.34 µM] | -8%[7.34 µM]
COC(=O)/C=c1\[nH]c2nnc(C)n2c1=O | -5% | -11%
O=C(OCC(=O)N1CCN(C(=O)c2ccco2)CC1)c1ccccc1OCc1ccc(Cl)cc1 | . | -10%
O=C(O)CCC(=O)NNC(=O)COc1cccc(Cl)c1 | i | -11%

Reprinted at random: two entries already listed, in no set order.
SMILES | VACV mCherry inh | Vaccinia Venus
COC(=O)/C=c1\[nH]c2nnc(C)n2c1=O | -5% | -11%
CCC(=O)N=c1sc2cc([N+](=O)[O-])ccc2n1CCOC | -20% | -9%

Additional structures follow:
SMILES | VACV mCherry inh | Vaccinia Venus
O=C(c1ccc(S(=O)(=O)N2CCCCC2)cc1)N1CCN=C1SCc1cccnc1 | 14% | -8%
Cc1nnc(Sc2nc3c(c(=O)[nH]c(=O)n3C)n2Cc2ccccc2)s1 | i | -12%
CCOC(=O)c1cc(C(=O)Nc2sc3c(c2C#N)CCCC3)nn1C | -19% | -12%
COC(=O)c1ccc2c(=O)[nH]c(CSc3nc(C)cs3)nc2c1 | i | -16%
Cc1cccc(C)c1NC(=O)/C(C#N)=C/c1ccsc1 | i | -15%
CCCc1nn2c(-c3ccccc3)nnc2o1 | -6% | -7%
CC12CCC(O)CC1=CCC1C2CCC2(C)C1CCC21CCC(=O)O1 (centres undefined) | ? | -23%
Cc1ccccc1CN1CCN(C(C)C(=O)NCc2ccccc2)CC1 (centres undefined) | -25% | 13%
CC1(C)ON(C2CCCCC2)[C@H]2c3nc4ccccc4n3C[C@H]21 | i | -3%
CC1C(=O)Nc2ccc(S(=O)(=O)NCc3ccc(Cl)cc3)cc2NC1=O (centres undefined) | -9% | ?
CCOC(=O)CC(NC(C)=O)c1ccc([N+](=O)[O-])cc1 (centres undefined) | i | -9%
O=C1[C@H](Cc2ccccc2)NC/C=C\C[C@H](c2ccco2)N1Cc1ccccc1 | 0% | -15%
Cc1ccc(C(=O)Nc2ccc3oc(-c4ccc(C(C)(C)C)cc4)nc3c2)cc1 | -8% | -11%
O=C(Nc1ccc(F)cc1F)N1CCN(c2ccc(Cl)c(Cl)c2)CC1 | -19% | -11%
COc1ccccc1N1CCN(c2cc(C)nc3nncn23)CC1 | -10% | -16%
CCC(C)[C@H]1CNCCN1CCCc1cc(OC)c(OC)c(OC)c1 (some centres undefined) | i | 3%
Cc1noc(C)c1NC(=O)Nc1cccc2c1O[C@H](CN(C)S(=O)(=O)c1ccccc1)[C@@H](C)CN([C@H](C)CO)C2=O | -4% | -9%
O=C(CCSCCC(=O)NCc1cccs1)NCc1cccs1 | . | -5%
CC(=O)CCc1c(C)c2cc(C)ccc2[nH]c1=O | . | -23%
CC(=O)Nc1cc(-c2ccc(C(=O)N3CCOCC3)cc2)cn2c(-c3ccc(C(C)=O)cc3)cnc12 | i | -15%

Complete entries as entered above. Order of values: VACV mCherry inh	Vaccinia Venus
CC(=O)CCc1c(C)c2cc(C)ccc2[nH]c1=O across the screens: .	-23%
CCOC(=O)c1cc(C(=O)Nc2sc3c(c2C#N)CCCC3)nn1C across the screens: -19%	-12%
Cc1noc(C)c1NC(=O)Nc1cccc2c1O[C@H](CN(C)S(=O)(=O)c1ccccc1)[C@@H](C)CN([C@H](C)CO)C2=O across the screens: -4%	-9%

More entries:
SMILES | VACV mCherry inh | Vaccinia Venus
C=CCSc1nnc2c(n1)-c1cccc3cccc-2c13 | -21% | ?
OC[C@H]1O[C@@H](c2nc(-c3ccc(C4OCCO4)cc3)no2)[C@H](O)[C@@H]1O | 15% | 6%
O=c1c2oc3ccccc3c2n(Cc2cccc(F)c2)c(=O)n1Cc1ccco1 | -13% | -11%
CN(C)C(=O)c1ccc(NC(=O)c2sccc2-c2ccccc2)cc1 | i | -14%
CCn1c(=O)c([N+](=O)[O-])c(NCCc2ccccc2)c2ccccc21 | ? | ?
COc1ccc(NC(=O)c2sc3nc4c(cc3c2N)CCCCCC4)cc1OC | ? | ?
Cc1nnc(SCC(=O)NC(C)(C)C)n1NCc1cccc(Br)c1 | -7% | -9%
COc1ccc(C(=O)COC(=O)COc2ccc(C)c(C)c2)cc1 | -9% | -13%
CCS(=O)(=O)N1CCN(Cc2ccccc2OC)CC1 | -15% | -13%
Cc1cccc(N2CCN(C(=O)C3CCN(S(=O)(=O)c4cnc[nH]4)CC3)CC2)c1C | -25% | -15%
C=CCn1c(C)csc1=Nc1ccccc1C | -12% | -8%
Cc1cccc(NC(=O)c2nc[nH]c2C(=O)NC[C@@H](C)O)c1 | -19% | -24%
N#Cc1ccc(OCC(O)CS(=O)(=O)c2ccccc2)cc1 (centres undefined) | -9% | -4%
CCOc1ccccc1CNC(=O)c1cnc2c(-c3ccc(OCC)c(OCC)c3)c(C)nn2c1C | -19% | -25%
CSc1ccc(C(=O)C2CCCN(Cc3ccn[nH]3)C2)cc1 (centres undefined) | i | -1%
Cc1onc(-c2ccccc2)c1C(=O)N=C(N)c1ccc(C(F)(F)F)cc1 | -4%[7.34 µM] | 5%[7.34 µM]
Cc1nc(-c2ccc(Cl)cc2)sc1C1(C)CC(c2ccc(C#N)cc2)=NO1 (centres undefined) | i | -16%
Nn1c(COc2ccccc2F)nnc1SCC(=O)NC1CC1 | 0% | 1%
CC1CN(Cc2ccc(C#N)cc2Cl)CC(C)O1 (centres undefined) | . | -3%
Cc1ccc(/C=N/NC(=O)Cc2c[nH]c3ccccc23)c(C)c1 | -22% | ?

An excerpt from above in order of molar mass, low to high.
SMILES | VACV mCherry inh | Vaccinia Venus
CC1CN(Cc2ccc(C#N)cc2Cl)CC(C)O1 (centres undefined) | . | -3%
C=CCSc1nnc2c(n1)-c1cccc3cccc-2c13 | -21% | ?
Cc1cccc(NC(=O)c2nc[nH]c2C(=O)NC[C@@H](C)O)c1 | -19% | -24%

(listing goes on)
SMILES | VACV mCherry inh | Vaccinia Venus
Cc1cc(C(=O)O)cc(S(=O)(=O)Nc2c(C)nn(C)c2C)c1C | -20% | -14%
COc1ccc([C@H]2CC(=O)C=C(c3ccc(-c4ccccc4)c(F)c3)C2)cc1 | i | -17%
Cc1onc(-c2ccccc2)c1C(=O)Nc1ccon1 | -1% | -4%
O=C(COc1ccccc1F)NCC(c1ccco1)N1CCCC1 (centres undefined) | 8% | -1%
COCCCNC(=O)C[C@H]1C[C@H](C(=O)N2CCCCC2)[C@@]2(CCc3ccccc3)c3[nH]c4ccc(Cl)cc4c3CCN2C1=O | ? | ?
CCOC(=O)c1ccc(NC(=O)C2=C(C)Nc3nc(CCCO)nn3C2c2cccc(C)c2)cc1 (centres undefined) | -1% | 5%
CCc1ccc(-c2cc(N)n(-c3ccccc3)n2)cc1 | ? | -22%
CCCCc1ccc(-c2c(C#N)c(N)nc3c2CCCC3)s1 | -18% | 9%
Cc1cccc(N2C(=O)C=CC2=O)c1 | -7% | 12%
Oc1cc(-c2nc3ccccc3s2)cc2c1OCCN(Cc1cccn1-c1ccccn1)C2 | -15% | -15%
COc1ccc(-c2nc3ccc(C)cn3c2Cc2cccc(F)c2)cc1OC | 3% | -3%
CCC(=O)Nc1ccc(Cl)c(NC(=O)c2cccc(OC)c2)c1 | -12% | -11%
CCOC(=O)c1ccccc1NC(=O)C(=O)Nc1ccc2nc3n(c(=O)c2c1)CCCCC3 | -9% | -20%
CC(C)=CCC/C(C)=C/CNC(=O)C[C@H]1C[C@H](C(=O)N2CCCCC2)[C@@]2(C)c3[nH]c4cc(-c5ccco5)ccc4c3CCN2C1=O | ? | ?
O=C(CSC(=S)N1CCCC1)N1CCN(S(=O)(=O)c2ccccc2F)CC1 | i | -21%
COc1cc2c(NC3CCN(C)CC3)nc(N3CCCN(C)CC3)nc2cc1OCCCN(C)C | -24% | ?
CCCNC(=O)c1ccc(N2CCC3(CC2)CC(c2ccccc2)=NO3)c(NC(=O)Cc2ccc(F)cc2)c1 | -5% | -24%
CCOC(=O)c1c(Cc2cccc(Cl)c2)c[nH]c1C | i | -7%
CCn1c(=O)[nH]c2cc(Cl)c(Cl)cc21 | -10% | -11%
Nc1c(C(=O)O)sc2nc(-c3ccccc3)cc(-c3ccc(Cl)cc3)c12 | i | -16%

As entered above:
Vaccinia Venus with CCCCc1ccc(-c2c(C#N)c(N)nc3c2CCCC3)s1 : 9%
Vaccinia Venus with O=C(COc1ccccc1F)NCC(c1ccco1)N1CCCC1 (centres undefined) : -1%

Next part.
SMILES | VACV mCherry inh | Vaccinia Venus
CON/C=N/C(=S)Nc1ncc(C(F)(F)F)cc1Cl | -10% | -10%
Cn1c(O)c(C=NC2CC3CCC2(C)C3(C)C)c(=O)[nH]c1=O (centres undefined) | . | -21%
CCOC(=O)C1CCN(C(c2ccc(OC)c(OC)c2)c2sc3nc(C)nn3c2O)CC1 (centres undefined) | -17% | -15%
CN(CC(=O)Nc1nc2ccccc2s1)S(=O)(=O)c1ccc(Br)cc1 | i | -14%
Cc1cc(C)cc(NC(=O)OCCN2CCN(Cc3ccccc3)CCC2=O)c1 | i | -25%
O=C(C1CCN(S(=O)(=O)N2CCC3(CC2)OCCO3)CC1)N1CCN(Cc2ccccc2)CC1 | -7% | 1%
CCCCOC(=O)c1cc(C)nc2ccc(Br)cc12 | ? | -2%
Cc1ccc(CSCC(=O)NCCc2ccccc2)cc1 | i | -10%
CCOc1ccc(NC(=O)CC2C(=O)N(c3ccccc3)C(=O)N2CCc2ccc(OC)cc2)cc1 (centres undefined) | -5% | -3%
Nc1cccc(Nc2nc(OC(C(F)(F)F)C(F)(F)F)nc(OC(C(F)(F)F)C(F)(F)F)n2)c1 | -33%[1.46 µM] | 28µM*
Cc1ccc(S(=O)(=O)c2nc(S(=O)(=O)c3ccc(C)cc3)c(NC(C)C)s2)cc1 | -14% | -11%
CCC(=O)N1CCc2cc(CNS(=O)(=O)c3cccs3)ccc21 | -6% | -6%
COc1ccc(/C=C(\C#N)C(=O)OCC(=O)NCc2ccccc2OC)cc1 | -14% | 6%
Cc1ccsc1C(=O)OCc1cc(=O)n2ccsc2n1 | -3% | -7%
O=C(c1ccc2c(c1)ncn2C1CCCCCC1)N1CCC2(CC1)OCCO2 | . | ?
CC1=C(C(=O)N2CCCCC2)C(c2cccs2)C2=C(CCCC2=O)N1 (centres undefined) | . | -21%
CCOc1ccc2nc(N(Cc3cccnc3)C(=O)C3CCCCC3)sc2c1 | -1% | -15%
N#Cc1ccccc1Cn1c(SCC(=O)Nc2ccc(F)cc2)nc2ccccc21 | -2% | 13%
O=C(Cn1c(=O)c2cccn2c2ccccc21)Nc1cc(F)ccc1F | 4% | 10%
C=CCn1nc(-c2ccccc2)c(N2CCCCC2)cc1=O | i | -8%
CCc1cccc(CC)c1NC(=O)Cn1c(=O)c(-c2cc(C)ccc2NC(C)=O)nc2ccccc21 | -13% | -8%
COC(=O)c1nc(NNC(=O)c2ccccc2)sc1-c1ccccc1 | ? | 5%
Cc1ccc2cc(NC(=O)C3(C)CCN(C)C3)ccc2n1 (centres undefined) | -15% | -6%
CCOc1ccc2oc(C(=O)OCC(=O)N3CCCC(C)C3)c(C)c2c1 (centres undefined) | -28% | ?
COc1ccc(OC)c(NC(=O)CSc2ncnc3sc(C)cc23)c1 | -2% | -9%
Cn1c(-c2cc(Cl)ccc2O)nc2c1c(=O)[nH]c(=O)n2Cc1ccccc1 | -18% | -22%
CC(=O)Oc1ccc2c(c1)CCC1C2CC[C@@]2(C)C1CC(OC(C)=O)C2OC(C)=O (some centres undefined) | -12% | -6%
O=C(Nc1ccccc1C(=O)Nc1ccc2c(c1)OCO2)c1cccs1 | -16% | -22%
CCCc1nn2c(N)c(/C=C3\C=Nc4ccccc43)c(=O)nc2s1 | -14%&-10% | -10%&1%
